Bioassay records (PubChem BioAssay)
NPYLR7 ag = agonists of mosquito NPYLR7 receptor, primary screen, cell-based, Aedes aegypti, calcium fluorescence, mosquito biting behavior. HEK293T NPYLR7/Galpha15, GCaMP6s calcium fluorescence. Aedes aegypti neuropeptide Y-like receptor 7 (NPYLR7). activation, % at 10 µM. AID 1259423, 2018. 0.15% of 270,000 active; in the data active = activation above about 40%;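 note: 0% = vehicle and 100% = reference agonist at the receptor; some compounds past the cut are filed as inactive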
NPYLR7 ag max-min = recorded beside NPYLR7 ag, whose call it bears; activation, %; measured here: Max-Min RFU normalised activation; some inactives read as strong as hits;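 span of the calcium signal over five minutes; 0% = vehicle and 100% = native peptide agonist; compound fluorescence can raise it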
* hit, by the source's call; & = joins results of further samples.

SMILES | NPYLR7 ag | NPYLR7 ag max-min
CN(C)CCN(C(=O)COc1ccc(Cl)cc1Cl)c1nc2cc3c(cc2s1)OCO3 | 8 | 2
O=C(NC1CC1)C(C1CCCC1)N1CCN(C(=O)COc2ccc(Cl)cc2)CC1 (stereo not given) | -8 | -7
CN(C)CCc1ccc(Nc2ncccc2C#N)cc1 | 4 | 1
CN1CCc2nc3sc4c(=O)c(=O)[nH][nH]c4c3cc2C1 | 13 | 6
Fc1cccc(C2NCc3ccccc3-n3cccc32)c1F (stereo not given) | 12 | 11
O=C(Nc1cc(F)cc2c1OCOC2)N1CCN(CCOC(c2ccccc2)c2ccc(F)c(F)c2)CC1 (stereo not given) | 2 | -2
COCCCNC(=O)CN1C(=O)CSC(c2ccccc2Cl)c2c(C(C)(C)C)nn(-c3ccc(OC)cc3)c21 (stereo not given) | 14 | 2
O=C(Nc1cccnc1)c1cccn(Cc2cccc(Cl)c2)c1=O | 16 | 7
c1cncc(-n2cccc2CN2CCCN3CCC[C@H]3C2)c1 | -1 | -3
C1CC[C@H]([C@@]23C[C@H](C[C@H]4CCCN[C@H]42)[C@@H]2CCCCN2C3)NC1 | 3 | 0
O=C(Nc1ccon1)c1cccn(Cc2ccccc2F)c1=O | 16 | 5
CCCn1cc(CN2C[C@H](c3ccccc3)[C@@H]3[C@H]2C2CCN3CC2)c(C)n1 | 8 | -2
CCOc1ccc2[nH]c(=O)c(C3NCCc4[nH]cnc43)cc2c1 (stereo not given) | 8 | 3
CCn1ccnc1CN1C[C@H](c2cc(F)cc(F)c2)[C@@H]2[C@H]1C1CCN2CC1 | -1 | -4
Cc1cc(-c2nnco2)ccc1NC1CN2CCC1CC2 (stereo not given) | -4&3 | -5&1
CCN1C[C@]2(OC(=O)c3ccccc3NC(C)=O)CCC(OC)[C@]34C1[C@H](CC23)[C@@]1(O)CC(OC)[C@H]2CC4C1(O)[C@H]2OC (stereo not given in full) | 7 | 0
CCCNc1nc(SC)nc2c1cnn2CCN | -2 | -3
COc1ccc2c(c1)c(C(=O)Nc1ccc(N3CCCCC3)cc1)nn2Cc1ccc(S(=O)(=O)N(C)OC)cc1 | 12 | 16
CCC(=O)N(Cc1ccco1)Cc1cc(NC(=O)c2ccccc2Cl)ccc1N(C)C1CCN(C)CC1 | -12 | -2
CC1c2c(c3ccccc3oc2=O)OC(=N)C1C#N (stereo not given) | 2 | 2
N#CC(C#N)=NNc1ccccc1 | -2 | -2
CC(C)(C)NCC(C)(O)c1ccc(Br)cc1 (stereo not given) | 8 | 9
O=C(c1cnn2c1CCCC2)N1C[C@H](c2ccccc2)[C@@H]2[C@H]1C1CCN2CC1 | 14 | 11
NCC#Cc1ccccc1 | 5 | -28
Fc1cc(F)c2c(c1)C1C=CCC1C(c1cccnc1)N2 (stereo not given) | 15 | 11
O=C(CCl)Nc1ncccn1 | 2 | -2
NC(=O)C1CCN(C(=O)[C@H]2CN3CCC2C[C@@H]3Cn2cc(-c3cccc(O)c3)nn2)CC1 (stereo not given in full) | -2 | -11
COc1cccc(CC(C)NC2CCN(C(=O)c3ccc(C)cc3)CC2)c1 (stereo not given) | 3 | 1
N#CC1C(=N)Oc2c(c(=O)oc3ccccc23)C1c1ccccc1Br (stereo not given) | 7 | 2
CCOC(=O)c1ncn2c1CN(C)C(=O)c1cc(N=[N+]=[N-])ccc1-2 | 6 | -6
CN(C)CC1CSCCC1(O)c1ccc(C(F)(F)F)cc1 (stereo not given) | 0 | -1
CCCCn1nc(C)c(C(=O)Nc2cc(C)ccc2F)c1Cl | 0 | -1
Cc1cc(CS(=O)C(c2ccccc2)c2ccccc2)on1 (stereo not given) | 1 | 1
Cc1cc2ncc(C(=O)N3CC[C@@H]4CC[C@H](C3)N4C)c(=O)n2[nH]1 | 2 | 2
NCC(CP(=O)(O)O)c1ccc(Cl)cc1 (stereo not given) | -3 | 3
COc1cccc(C(CN2CCN(C(=O)Cc3ccccc3)CC2)OCc2cccc(Cl)c2)c1 (stereo not given) | 2 | -2
O=C(O)COc1ccc(CN2CCN(CCOC(c3ccccc3)c3ccc(F)c(F)c3)CC2)cc1 (stereo not given) | 31 | 22
Oc1cc(Cl)c(Cl)cc1Cl | -16 | -27
Cc1ccc(-n2nc(-c3ccccc3)c3c2N(CC(=O)N2CCOCC2)C(=O)CSC3c2cccc(Cl)c2)cc1 (stereo not given) | 23 | 16
CN1C[C@H](O)[C@]2(CCNC2)S1(=O)=O | 2 | 9
O/N=C1/C(=C/c2ccc(O)cc2)N2CCC1CC2 | -3 | -3
O=[N+]([O-])c1ccc(O)c([N+](=O)[O-])c1 | -28 | -34
Cc1ccc(C)n1C(Cc1cnc[nH]1)C(=O)O (stereo not given) | 2 | 6
CC(C)OP(=S)(OC(C)C)OC(C)C | -1 | -2
COc1ccccc1CC(C)N(C)Cc1cc(=O)c(O)co1 (stereo not given) | -3 | -2
NC(=O)c1ccccc1NC(=O)c1cccn(Cc2ccc(F)cc2)c1=O | 15 | 5
COCc1nc(-c2ccc(CN3CCN(C(=O)Cc4ccsc4)CC3)cc2)no1 | 3 | 9
CSc1nc(NC(C)C)nc(NC(C)C)n1 | -8 | -10
CN1CCC2(CCN(Cc3ccncc3Cl)CC2)C1 | 17 | 16
CCC(NC(C)=O)C1=CCN(CCc2c[nH]c3ccccc23)CC1 (stereo not given) | 25 | 13
The listing continues.
SMILES | NPYLR7 ag | NPYLR7 ag max-min
CN(C)CC(C)(O)c1ccc(Br)cc1 (stereo not given) | 8 | 8
NC(CCCCCP(=O)(O)O)C(=O)O (stereo not given) | 0 | -2
CCOC(=O)[C@@]1(C#N)[C@@H]2C=CC(C(N)=O)=CN2[C@@H](C(C)=O)[C@@H]1c1cccnc1 | 0 | -1
COCCCNC(=O)CN1C(=O)CSC(c2cccc(F)c2)c2c(C(C)(C)C)nn(-c3cccc(Cl)c3)c21 (stereo not given) | 2 | 0
CCCC12CN3CC(C)(CN(C1)C3C(C)C)C2=O (stereo not given) | 5 | 2
CNC(=O)Oc1ccc(OCc2cccc[n+]2C)cc1 | 2 | 6
Cc1ccc(-c2cc(C(=O)N3C[C@H]4C[C@@H](C3)c3cccc(=O)n3C4)n[nH]2)o1 | -1 | -2
CCOC(=O)[C@@H]1[C@@H](c2ccccc2)CN2CCN(C(=O)N(C)C)C[C@H]12 | 2 | -1
Cc1onc(-c2c(F)cccc2Cl)c1C(=O)N1CCN(CCOC(c2ccccc2)c2ccccc2)CC1 | 24 | 12
O=C1C=CC(=O)C=C1 | 5 | -2
O=C(Nc1cccc(Cl)c1)C(C1CCCC1)N1CCN(C(=O)COc2ccccc2)CC1 (stereo not given) | 4 | 4
Cc1oncc1S(=O)(=O)NC[C@H]1C[C@@H]2CCN1C[C@@H]2CN(C)Cc1ccccc1 | -7 | -15
CC(C)(C)c1nn(-c2cccc(Cl)c2)c2c1C(c1cccs1)SCC(=O)N2CC(=O)N1CCCC1 (stereo not given) | 3 | 17
Cc1cc(NC(=O)c2cccn(Cc3ccccc3F)c2=O)c2ccccc2n1 | 14 | 5
O=C(Nc1ccc([N+](=O)[O-])cc1)c1cccn(Cc2cccc(C(F)(F)F)c2)c1=O | 16 | 10
O=S(=O)(c1ccc(F)cc1Cl)N1CCN(CCOC(c2ccccc2)c2ccccc2)CC1 | 25 | 28
O=C(Nc1cccc2ccccc12)OCCn1nnnc1C1(N2CCOCC2)CCCCC1 | 5 | 4
FC(F)(F)c1cccc(C(OCCN2CCN(Cc3ccco3)CC2)c2ccccc2)c1 (stereo not given) | -2 | 5
C=C(C)C1CC=C(CN(C)C2CCN(C)CC2)CC1 (stereo not given) | -10 | -20
NCc1cccnc1 | -2 | 2
CN(Cc1ccccc1)C(=O)c1ccc(Cn2nc(C(=O)N3CCN(C(=O)C4CCCO4)CC3)c3ccccc32)cc1 (stereo not given) | 14 | 19
C1=CC[C@H]2CN(Cc3cnc(N4CCOCC4)nc3)C[C@H]2C1 | 8 | 5
COc1ccc2c(c1)c(C(=O)NC(C)C(C)C)c(C)n2C1CC1 (stereo not given) | -23 | -24
CC(Cc1cnccn1)NCC(=O)Nc1cnccn1 (stereo not given) | 9 | 3
CC(C)C[C@H]1C(=O)N2CCC[C@H]2[C@]2(O)O[C@](NC(=O)[C@@H]3C=C4c5cccc6[nH]cc(c56)C[C@H]4N(C)C3)(C(C)C)C(=O)N12 | 20 | 18
CSc1nc2ccccc2c(=O)n1-c1cc(C(F)(F)F)ccc1Cl | 6 | 3
N#Cc1ccc(Cl)cc1NC(=O)c1cccn(Cc2ccccc2Cl)c1=O | 14 | 5
Cc1ccc(-c2nn3c(C4C5C=CC(C5)C4C(=O)O)nc4ccccc4c3nc2=O)cc1 (stereo not given) | 9 | 5
OC1CNCC1N1CCCC1 (stereo not given) | -14 | -19
CC(C)(C)OC(=O)N1CCC(Nc2ccc(C#N)c(C(F)(F)F)c2)C1 (stereo not given) | 5 | 3
Cc1cccc(CC(C)NCc2c(C(=O)N3CCCC3)nc3sccn23)n1 (stereo not given) | 3 | 6
c1ccc(C(c2ccccc2)c2ncc[nH]2)cc1 | 15 | 7
CC12CN3CC(C)(CN(C1)C3(C)C)C2=O | 1 | 7
CCOC(=O)c1ncn2c1[C@@H]1CCCN1C(=O)c1cc(OC)ccc1-2 | 2 | -47
COc1cc(OC)c(OC)cc1C=C1C(=O)NC(=S)NC1=O | 1 | -1
Cc1nnc2n1-c1ccc(Cl)cc1C(c1ccccc1)=NC2 | -11&-6 | -14&-11
CCOC(=O)CCN1CC1C(=O)OCC (stereo not given) | -7 | -14
COP1(=S)C2=C(N3CCOCC3)CC(C)(C)CC2=NN1c1ccccc1 (stereo not given) | 6 | 11
COc1ccc(-n2nc(C(C)(C)C)c3c2N(CC(N)=O)C(=O)CSC3c2cccc(Cl)c2)cc1 (stereo not given) | 0 | 14
COc1ccc(N(C)C(=O)c2ccc(Cn3nc(C(=O)Nc4ccc(C(N)=O)cc4)c4ccccc43)cc2)cc1 | -1 | 25
Cc1ccc(C)c(Cn2cccc(C(=O)Nc3cc(Cl)ccc3C#N)c2=O)c1 | 6 | 6
CC(C)CN(Cc1cc(NC(=O)C2CCCC2)ccc1N(C)C1CCN(C)CC1)C(=O)c1ccc(F)cc1 | 5 | 15
CC(=O)O[C@H]1C[C@@H](OC(C)=O)C(C)(C)C2C[C@@H](OC(C)=O)[C@]3(C)C(CC[C@@]4(C)[C@H](c5ccoc5)C[C@H]5O[C@]543)[C@]21C (stereo not given in full) | -2 | -9
Cc1ccsc1C(=O)C1CCCN(Cc2ccc(C#CC(C)(C)O)s2)C1 (stereo not given) | 14&4 | 9&0
CC1(C)CC2(CCO1)NCCN1C(=O)CSC12 (stereo not given) | 2 | 1
C(=C\c1ccco1)/CN1CC[C@H]2CC[C@@H](C1)N2 | 3 | 2
O=C(CSCc1ccccc1Cl)NCCc1cnc[nH]1 | -3 | -8
CCOC(=O)[C@H]1CN(C(=O)c2cccs2)[C@]2(C)C(=O)N(CC(=O)N(C)C)c3ccccc3[C@H]12 | 21 | 29
Cc1ccc(C)c(C(O)CNC(C)C)c1 (stereo not given) | -2 | -13
COc1cccc(CC(=O)N2CCN(CC(OCc3cccc(C)c3)c3ccc(Cl)cc3)CC2)c1 (stereo not given) | 4 | 1
(cont.)
SMILES | NPYLR7 ag | NPYLR7 ag max-min
CC(C)CCn1cc(C(=O)O)nn1 | 8 | 4
Fc1cccc([C@@H]2CN(Cc3nccs3)[C@@H]3C4CCN(CC4)[C@@H]32)c1F | 8 | 5
O=C(Nc1ccc2[nH]cc(CCN3CCOCC3)c2c1)c1ccccc1OC(F)(F)F | 1 | 6
N#Cc1ccc(NCCS(=O)(=O)N2CCOCC2)cc1Cl | 4 | 2

Filtered by structure: those above with an aryl methoxy group.
SMILES | NPYLR7 ag | NPYLR7 ag max-min
COCCCNC(=O)CN1C(=O)CSC(c2ccccc2Cl)c2c(C(C)(C)C)nn(-c3ccc(OC)cc3)c21 (stereo not given) | 14 | 2
COc1ccc2c(c1)c(C(=O)Nc1ccc(N3CCCCC3)cc1)nn2Cc1ccc(S(=O)(=O)N(C)OC)cc1 | 12 | 16
COc1cccc(CC(C)NC2CCN(C(=O)c3ccc(C)cc3)CC2)c1 (stereo not given) | 3 | 1
COc1cccc(C(CN2CCN(C(=O)Cc3ccccc3)CC2)OCc2cccc(Cl)c2)c1 (stereo not given) | 2 | -2
COc1ccccc1CC(C)N(C)Cc1cc(=O)c(O)co1 (stereo not given) | -3 | -2
COc1ccc2c(c1)c(C(=O)NC(C)C(C)C)c(C)n2C1CC1 (stereo not given) | -23 | -24
CCOC(=O)c1ncn2c1[C@@H]1CCCN1C(=O)c1cc(OC)ccc1-2 | 2 | -47
COc1cc(OC)c(OC)cc1C=C1C(=O)NC(=S)NC1=O | 1 | -1
COc1ccc(-n2nc(C(C)(C)C)c3c2N(CC(N)=O)C(=O)CSC3c2cccc(Cl)c2)cc1 (stereo not given) | 0 | 14
COc1ccc(N(C)C(=O)c2ccc(Cn3nc(C(=O)Nc4ccc(C(N)=O)cc4)c4ccccc43)cc2)cc1 | -1 | 25
COc1cccc(CC(=O)N2CCN(CC(OCc3cccc(C)c3)c3ccc(Cl)cc3)CC2)c1 (stereo not given) | 4 | 1

Only part of the results is shown; count on the stated rates, not on these rows.
